# Vaccinia pol inh: vaccinia E9 polymerase processive synthesis inhibition; in vitro processive DNA synthesis, absorbance read-out; hits give low values; some inactives read as strong as hits; normalized absorbance, % (test concentration not listed); actives 0.94% (n = 46,000); AID 493162;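 active = replicate mean up to 90% and picked by the depositor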;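 also: 100% = median of the test wells of a plate; 100 nL library stock went into each well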
# Numbers without * were called inactive. Some of the compounds tested. The share of hits here may be higher or lower than overall.
compound | Vaccinia pol inh
O=C(NCc1ccccc1)c1ccc(N2C(=O)Cn3c(cc4sccc43)C2=O)cc1 | 97.4
CCN(CC)Cc1cc(C(C)C)c(O)c(C(C)C)c1 | 87.2
N/C(=N\O)C(=O)Nc1ccccc1 | 92.6
Nc1nonc1-c1nc2ccccc2n1CC(=O)N1CCN(c2ccc(F)cc2)CC1 | 99.2
O=C(C1COc2ccccc2O1)N1CCNCC1 (stereo unspecified) | 96.1
O=c1[nH]nc(-c2ncc[nH]2)c2ccccc12 | 100.5
C=CCN1C(=O)C(C(=O)Nc2ccccc2)C2CC1(C)Oc1ccccc12 (stereo unspecified) | 107.6
N=C(N)SC12CC3CC(CC(C3)C1)C2 | 87.0
CCOC(=O)C1=C(N)Oc2c(C)cc(Cl)cc2C1C(C#N)C(=O)OCC (stereo unspecified) | 94.0
Cc1ccc(S(C)(=O)=NS(=O)(=O)c2sc3ccc(Cl)cc3c2C)cc1 (stereo unspecified) | 97.9
CCOC(=O)c1nnn2c1nc(Sc1nnc(-c3ccncc3)n1C)c1ccccc12 | 97.4
C=CC[N+](C)(C)CC#Cc1ccccc1 | 100.3

# Some of these compounds in order of heavy-atom count, ascending.
compound | Vaccinia pol inh
N/C(=N\O)C(=O)Nc1ccccc1 | 92.6
C=CC[N+](C)(C)CC#Cc1ccccc1 | 100.3
Cc1ccc(S(C)(=O)=NS(=O)(=O)c2sc3ccc(Cl)cc3c2C)cc1 (stereo unspecified) | 97.9

# (listing goes on)
compound | Vaccinia pol inh
CSc1ccccc1C(=O)Nc1cc(C)cc(C)c1 | 121.6
CC1CCCCN1c1ccc(C(F)(F)F)cn1 (stereo unspecified) | 103.1
COc1ccccc1CC(=O)N1CCCC(C)C1 (stereo unspecified) | 99.9
O=C(NCc1ccc(Cl)cc1)c1cc2c(Cl)nc3ccccc3c2s1 | 87.7
COc1ccccc1CN1CCCC(C(=O)N(C)Cc2ccccc2)C1 (stereo unspecified) | 98.9
Cc1ccc(S(=O)(=O)/N=C(\Nc2cc(C)on2)c2ccccc2)cc1 | 93.5
COc1ccc2sc(N(CCN(C)C)C(C)=O)nc2c1 | 99.2
O=C1CCC(c2ccccc2)c2cc(Oc3c(F)c(N4CCOCC4)nc(F)c3Cl)ccc21 (stereo unspecified) | 99.4
CCCn1c(-c2ccc(F)cc2)n[nH]c1=O | 96.3
CCO/C=C1\SC(=S)N(/N=C/c2cccc(Cl)c2)C1=O | 95.3
COc1ccc2oc(=O)c(-c3nc(-c4ccc(Cl)cc4)cs3)cc2c1 | 102.3
CC1(C)Cc2nc3sc4c(=O)n(CC(=O)c5ccc(Cl)cc5)cnc4c3cc2CO1 | 100.8
O=S(=O)(c1ccc(C2CCCCC2)cc1)N(CCCN1CCOCC1)Cc1cccs1 | 100.6
Cc1ccc(C(=O)/C=C/C(=O)c2ccc(C)cc2)cc1 | 96.3
CC1(C)CC(=O)c2c([nH]c(-c3ccccc3)c2-c2ccccc2)C1 | 98.0
CCN(CC)c1ccc(NC(=O)C2c3ccccc3Oc3ccccc32)cc1 | 99.8
Cc1ccccc1NC(=O)CN1C(=O)c2ccccc2C1=O | 100.0
O=C(N/C=C/c1ccsc1)Sc1cc(C(F)(F)F)cc(C(F)(F)F)c1 | 102.9
CCc1ccc(N2CN(Cc3ccccc3)CNC2=S)cc1 | 99.7
Cc1ccc(O)c(NC(=O)c2cccs2)c1 | 94.3
CCc1cc(=O)n2[nH]c(C)c(-c3ccccc3OC)c2n1 | 104.4
CC1Nc2ccccc2C(=O)N1NC(=O)c1ccc(Br)cc1 (stereo unspecified) | 100.1
O=C(CCNS(=O)(=O)c1ccc2nc(-c3ccccc3)[nH]c2c1)N1CCOCC1 | 99.5
CCC(CC)C(=O)N1c2ccccc2Sc2ccccc21 | 99.7
O=C1CCCN2N=C(SCC(=O)N3CCCc4ccccc43)SC2=N1 | 100.0
O=C(O)CNC(=O)COc1ccc(Oc2ccccc2)cc1 | 100.3
O=C(Nc1nnc(-c2ccc(Cl)cc2)s1)C1CCCCC1 | 97.7
CCC(C)NC(=O)c1cc(-c2ccccc2O)no1 (stereo unspecified) | 92.4
CCOC(=O)c1c(NC(=O)C(C)(C)C)sc2c1CCCC2 | 96.2
Cc1ccsc1C(=O)OCC(=O)Nc1ccccc1 | 108.6
Cc1cccc(NC(=O)c2ccco2)n1 | 85.7
O=C(OCc1ccco1)c1ccc(-c2ccc(Cl)cc2)s1 | 91.1
CC1CCN(C(=O)c2ccc3c(Cl)c4c(nc3c2)CCCC4)CC1 | 100.0
O=C(CSc1nnc(SCc2ccc(Cl)cc2)s1)N1CCc2ccccc2C1 | 100.6
O=C(CSC1=NCCS1)Nc1ccccc1C(F)(F)F | 106.4
Cc1nn(-c2ccccc2)nc1CNC(=O)c1ccc(N(C)C)cc1 | 99.6
O=C(C(Cc1ccccc1)NS(=O)(=O)c1ccc(F)cc1)N1CCC2(CC1)OCCO2 (stereo unspecified) | 97.2
Cc1cc(C(=O)COc2ccc(F)cc2)c(C)n1-c1ccccc1 | 97.6
Cc1nc(N2CCOCC2)c2c(C)c(C(=O)Nc3cccc(Cl)c3C)sc2n1 | 101.0
CC(C)(C)NC(=O)c1ccccc1 | 99.8
Cc1nnc(NC(=O)c2cccc(Cl)c2)s1 | 102.8
Cc1ccc(C2=N/C(=C\c3cccs3)C(=O)O2)cc1 | 107.7
O=C(CCc1cn(Cc2ccc(F)cc2)c2ccccc12)NC1CCCc2ccccc21 (stereo unspecified) | 109.7
O=c1c2sc(=S)n(Cc3ccco3)c2nc(SCc2ccccc2)n1-c1ccccc1 | 103.0
CC(=O)Nc1c(N)c2ccccc2oc1=O | 95.2
Cc1cccc(NC(=O)Cn2c(CNC(=O)c3ccccc3)nc3ccccc32)c1 | 91.7
CCOC(=O)C1=C(c2ccccc2)NC(=S)NC1c1cccc(OC)c1O (stereo unspecified) | 100.4
O=c1c2ccccc2n2c(-c3ccsc3)nnc2n1Cc1ccccc1 | 97.4
NC(=O)/C=C1\NC(=O)CS1 | 103.2
COc1cccc(OC(=O)c2ccc(Cl)cc2Cl)c1 | 102.0
CCn1c(C(=O)N2CCCC2)cc2sc(Cl)cc21 | 84.2
O=C(OCC(=O)N1CCC(Cc2ccccc2)CC1)C1CCC1 | 100.5
Cn1c(=O)c2c(nc(CN3CCN(c4ccccc4)CC3)n2Cc2c(F)cccc2Cl)n(C)c1=O | 89.5
CCn1c2ccccc2c2n[nH]c(=S)nc21 | 100.3
COc1cccc(C(=O)N(c2ccccn2)c2ccccn2)c1 | 100.1
COc1ccc(-c2c/c(=N\O)c3cc(F)ccc3o2)cc1 | 88.4
Cc1ccc(C(=O)CSc2nc(C)cc(C)c2C(N)=O)cc1 | 100.3
CC(C)Cn1c(=O)c2sccc2n2c(CCCC(=O)NC3CCCCCC3)nnc12 | 81.2
S=C(NCc1ccccc1Cl)NC12CC3CC(CC(C3)C1)C2 | 103.1
OC1C2CCN(c3ccccc32)C1Cc1ccccc1 (stereo unspecified) | 105.8

# Following part:
compound | Vaccinia pol inh
CC(C)(C)C(=O)N(Cc1ccc(Cl)cc1)Cc1cccnc1 | 100.3
c1ccc(-c2nnc(OCC3CCCO3)c3ccccc23)cc1 (stereo unspecified) | 100.0
Cc1ccc(-c2nc(-c3ccccc3)no2)cc1 | 98.9
CC(C)(C)N1CC(OC(=O)CCC(=O)O)C1 | 100.6
CCOC(=O)c1cnn(C(=O)c2c(C)nc3ccccn23)c1N | 105.7
COc1ccc2c(c1OC)C(=O)O[C@H]2[C@H]1c2cc3c(cc2CCN1C)OCO3 | 103.2
CCCc1cc(=O)oc2c(CN3CCCC3)c(O)ccc12 | 89.8
CC1CN(S(=O)(=O)c2ccc(C(=O)N=c3sc4cccc(Cl)c4n3C)cc2)CC(C)O1 (stereo unspecified) | 103.2
S=C(NCc1cccs1)Nc1ccccc1 | 100.1
COc1ccc(C(=O)OCC(N)=O)cc1 | 98.9
COc1ccc(/C=C/C(=O)Nc2ccc(C)cc2C)cc1 | 101.8
O=C(Cn1cncn1)c1ccc(Cl)cc1 | 123.6
O=c1c(C=NCCc2ccccc2)c(NCCc2ccccc2)nc2ccccn12 | 99.7
COc1ccc(-c2cc(C(F)(F)F)n3nc(C(=O)NCCN4CCOCC4)cc3n2)cc1 | 100.0
CC(Cc1c[nH]c2ccccc12)N(Cc1ccccc1)Cc1ccccc1 (stereo unspecified) | 99.9
Cc1ccc(NC(=O)Cn2c(=O)oc3cc(S(=O)(=O)NC4CCCC4)ccc32)cc1 | 101.8
O=C(Oc1ccc(F)cc1)c1nsc(Cl)c1Cl | 95.8
CCc1ccc2nc(Nc3nc4ccccc4c(=O)[nH]3)nc(C)c2c1 | 100.0
CC(C)(C)NCC(O)COc1ccc(Br)cc1 (stereo unspecified) | 98.2
CC(O)c1ccc(Oc2ccc(C(C)O)cc2)cc1 (stereo unspecified) | 100.1
N#Cc1c(N)nc(SCc2ccccc2)c(C#N)c1-c1ccccc1 | 83.0*
COC(=O)/C=c1/sc2n(c1=O)C(C)=CC(C)(C)N=2 | 104.7
O=C1NC(=O)C2(C(=O)N1)C(c1ccc(Cl)cc1)NC(=S)NC2c1ccc(Cl)cc1 (stereo unspecified) | 80.0
O=C(NCc1ccccc1)C1CCN(S(=O)(=O)N2CCCCCC2)CC1 | 106.3
O=c1c(-c2ccccn2)coc2cc(O)ccc12 | 99.9
O=C(NO)c1cccs1 | 99.7
N#Cc1cc2c(=O)n3ccccc3nc2n(CCc2ccccc2)c1=O | 101.6
O=C(/C=C/N1CCOCC1)c1csc(-c2ccc(C(F)(F)F)cc2)n1 | 99.9
CCNC(=O)c1c(C)[nH]c(C(=O)OCC)c1C | 98.1
Cc1ccc(-c2noc(CNC(=O)CC3CCCCC3)n2)cc1 | 93.3
Cc1ccc2c3c(ccc2n1)NC1=C(C(=O)CCC1)C3C1CC=CCC1 (stereo unspecified) | 100.6
COC(=O)c1cn(C(=O)COc2ccccc2Cl)c2ccccc12 | 95.8
C(=N\n1cnnc1)/C1CCCCC1 | 114.1
COc1ccc2c(c1)-c1nc(C)sc1CC2 | 71.4
O=C1CCSc2c1cccc2C(=O)NCc1ccccc1 | 97.0
COC(=O)C(C)Sc1nnc(-c2c[nH]c3ccccc23)n1-c1ccc(OC)cc1 (stereo unspecified) | 108.1
Cc1cc(=O)nc2c3ccccc3n(C(C)C(=O)N(C)Cc3ccccc3)n12 (stereo unspecified) | 96.5
CCOc1ccccc1NC(=O)CN1C(=O)CSC(C)C1=O (stereo unspecified) | 103.7
CCCCN(CC)S(=O)(=O)c1ccc2[nH]c(=O)cc(C(=O)NCCc3ccc(Cl)cc3)c2c1 | 115.0
Cc1cc(C)c(NC(=O)C2CC3c4ccccc4C2C2C=CC=CC32)c(C)c1 (stereo unspecified) | 100.2
FC(F)(F)c1cccc(Nc2ncnc3c2cnn3-c2ccccc2)c1 | 100.1
Oc1ccc(N=Cc2c[nH]c3ccccc23)cc1 | 100.4
COc1ccccc1/C=C1\SC(=O)N(CCC(=O)N2c3ccccc3Sc3ccccc32)C1=O | 98.5
COC(=O)c1sc2nc(C)cc(C(F)(F)F)c2c1N | 94.9
CC(C)CN1C(=O)/C(=C/C=C/c2ccccc2)SC1=S | 99.1
O=C1CSC(=Nc2ccccc2)N1 | 104.3
COc1ccc(-c2cc(C(=O)N3CCN(C(c4ccccc4)c4ccccc4)CC3)no2)cc1 | 102.7
O=C(CCC(C(=O)O)N1C(=O)c2ccccc2C1=O)Nc1ccc2c(c1)COCO2 (stereo unspecified) | 94.2
c1ccc(C2=NNC(c3ccccc3)=NN2)cc1 | 90.3
N#Cc1cc2c(cc1C#N)N(Cc1ccccc1)CCN2Cc1ccccc1 | 100.0
COc1cccc(-n2cc(C(=O)N3CCCCCC3)c3ccccc3c2=O)c1 | 84.6
N=C(N)c1cc(C(F)(F)F)cc(C(F)(F)F)c1 | 108.2
Clc1ccc(Cn2c(CNc3ccccc3)nc3ccccc32)cc1 | 101.7
O=C(Cn1cc2c(n1)CCCC2)NCCCN1CCCCC1 | 99.4
CCOC(=O)C1=C(C)NN=C(C)C1 | 83.0
O=C(Nc1nnc(SCC(=O)N2CCc3ccccc32)s1)c1ccccc1 | 100.5
COc1ccc(-c2csc(NC(=O)c3cccs3)n2)cc1 | 94.3
COc1ccc(C(=O)COC2=C(C#N)C3(CCCC3)C(C#N)C(=S)N2)cc1OC (stereo unspecified) | 93.2
CN1C(=O)/C(=C/c2ccc(Cl)cc2)N(C)C1=S | 100.1
COc1ccc(C(CC#N)C2CCOC(C)(C)C2)cc1 (stereo unspecified) | 95.4

# Some values from the results shown:
# In Vaccinia pol inh, Clc1ccc(Cn2c(CNc3ccccc3)nc3ccccc32)cc1 has 101.7
# In Vaccinia pol inh, c1ccc(C2=NNC(c3ccccc3)=NN2)cc1 has 90.3
# In Vaccinia pol inh, N#Cc1cc2c(cc1C#N)N(Cc1ccccc1)CCN2Cc1ccccc1 has 100.0
# In Vaccinia pol inh, COc1ccc(C(=O)COC2=C(C#N)C3(CCCC3)C(C#N)C(=S)N2)cc1OC (stereo unspecified) has 93.2

# More structures:
compound | Vaccinia pol inh
Oc1ccc(I)nc1CCc1ccccc1 | 100.4
CC(C)CN(CC(C)C)c1nnc(NC(=O)c2csc3c2CCCC3)s1 | 102.8
Cc1cc2cc(CNC(=O)/C=C\c3ccc4c(c3)OCO4)ccc2n1C | 102.6
CCCn1cc(SCC(=O)Nc2nccs2)c2ccccc21 | 98.8
Nn1cnn(CC(=O)Nc2nccs2)c1=S | 96.1
O=C(Nc1cccc(-c2nc3ccccc3o2)c1)c1cccc(OCc2ccccc2)c1 | 99.8
NC(=O)CC1Sc2ccccc2NC1=O (stereo unspecified) | 99.0
Cc1cc(OCc2cn3cccnc3n2)ccc1Cl | 100.1
CCC1CCCCN1C(=S)NCc1ccccc1 (stereo unspecified) | 99.8
CCOC(=O)C1=C(C)NC(=O)CC1c1ccncc1 (stereo unspecified) | 93.3
Cc1cn2c(-c3ccccc3F)nc(=S)nc2s1 | 99.3
Brc1ccc2ncnc(NCC3CCCO3)c2c1 (stereo unspecified) | 99.0
Cc1ccc2oc(=O)c3cnn(CC(=O)NCCN4CCN(Cc5ccccc5)CC4)c3c2c1 | 101.9
O=c1[nH][nH]c(=S)n1C1CC1 | 95.9
CNC(=S)Nc1ccc(Cl)cc1 | 100.4
CCOC(=O)Cc1cc(=O)n(-c2nc3ccccc3s2)[nH]1 | 99.9
c1ccc(CSc2nccc(-c3ccc4c(c3)CCO4)n2)cc1 | 99.7

# Compound activity deposited in PubChem by ICCB-Longwood Screening Facility, Harvard Medical School.
